OX1R antag: OX1R (HCRTR1) antagonists, primary screen, fluorescence, CHO/OX1R cells, Fluo-8 calcium, orexin A; Orexin/Hypocretin receptor type 1 (Homo sapiens), O43613; Fluo-8 calcium fluorescence; inhibition, % at 5 µM; 0.43% of 330,000 active; AID 434989, 2010;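 active = inhibition above its plate's threshold, mean inhibition of all tested compounds on the plate plus 3 SD, cut at about 37% in these data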;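 note: 0% = orexin A challenge wells and 100% = SB-334867-A antagonist wells; not every result past the cut was called active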
Target sequence (O43613 whole entry, looked up): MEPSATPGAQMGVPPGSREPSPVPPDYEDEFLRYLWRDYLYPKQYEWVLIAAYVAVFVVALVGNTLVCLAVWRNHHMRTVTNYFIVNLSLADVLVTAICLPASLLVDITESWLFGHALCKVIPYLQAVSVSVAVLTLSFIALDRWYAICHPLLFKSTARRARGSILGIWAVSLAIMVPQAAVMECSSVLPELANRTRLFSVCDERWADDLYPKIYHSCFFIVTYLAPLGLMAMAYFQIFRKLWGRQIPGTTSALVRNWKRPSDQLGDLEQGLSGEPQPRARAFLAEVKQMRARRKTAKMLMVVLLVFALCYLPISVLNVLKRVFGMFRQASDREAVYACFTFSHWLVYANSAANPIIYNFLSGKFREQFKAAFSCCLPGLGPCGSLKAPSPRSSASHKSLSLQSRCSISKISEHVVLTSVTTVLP
An asterisk follows results filed as active. Only part of the results is shown; most or all hits stand in other tables.

SMILES | OX1R antag
Cc1[nH]c(C)c(S(=O)(=O)Nc2ccc(F)cc2Cl)c1C(=O)N1CCCC1 | -21
COCCN(CCOC)c1nc(-c2ccc(C)cc2)nc2ccccc12 | -31
O=C1CSC(c2ccccc2)N1CC12CC3CC(CC(O)(C3)C1)C2 (configuration not stated) | -9
COc1ccc(CCN(Cc2nc3ccccc3c(=O)[nH]2)C(=O)c2ccco2)cc1 | -12
CC(=O)c1nn(-c2cccc(C)c2)cc1C(=O)c1cccc(Br)c1 | -7
Cc1cc(NC(=O)CSCC(=O)Nc2cc(C(F)(F)F)ccc2N2CCCC2)no1 | -15
N/C(=N\OC(=O)c1ccc(=O)n(Cc2ccc(Cl)cc2)c1)c1ccccn1 | -24
Cc1cc(NS(=O)(=O)c2ccc(OCCNS(C)(=O)=O)cc2)no1 | 4
COC(=O)N/N=C(\C)c1ccccc1Br | -20
COc1ccc(C2NC(C(=O)O)Cc3c2[nH]c2ccccc32)cc1OC (configuration not stated) | -6
COc1ccc(-c2noc(N3CCCC(C(=O)Nc4ccccc4F)C3)n2)cc1 (configuration not stated) | -9
CCn1c(=O)c(C(=O)Nc2ccc(C)cc2)c(O)c2ccccc21 | -13
COC(=O)CC(=O)CSc1nc(C)cc(C)c1C#N | -9
Clc1ccccc1-c1nnc(-c2cccs2)o1 | -27
COc1ccccc1C(=O)Nc1ccc(-c2nnn(CC(=O)N3CCOCC3)n2)cc1 | -16
Cc1ccc(CNC(=O)c2cccnc2)cc1 | -17
CC(C)C(C(=O)C=[N+]=[N-])N1C(=O)c2ccccc2C1=O (configuration not stated) | -20
Cc1ccccc1NC(=O)c1cc(S(=O)(=O)N2CCCCC2)cs1 | -8
Cc1ccn(CCC(=O)N2CCCC(CCC(=O)NCc3ccc(F)c(F)c3)C2)n1 (configuration not stated) | 16
O=c1[nH]cnc(O)c1C(c1ccc(Br)cc1)c1c(O)nc[nH]c1=O | -5
Cc1c(CN(C)C(=O)c2sc3cc(Cl)ccc3c2Cl)cnn1C | 9
O=C(Cn1nnc2c(cnn2-c2ccc(F)cc2)c1=O)OC1CCCCC1 | -13
Nc1[nH]nc2nc(N3CCOCC3)nc(-c3ccccc3)c12 | -31
c1ccc(C(c2nnnn2Cc2ccco2)N2CCN(C3CCCC3)CC2)cc1 (configuration not stated) | -24
Cc1cccc2cc(CN(CC3CCCO3)C(=O)c3ccco3)c(=O)[nH]c12 (configuration not stated) | -20
Cc1ccc(OC[C@H](O)[C@H](C)NC(C)C)c2c1CCC2 | -6
Cc1ccc(C(=O)Nc2nnc(CC(=O)N/N=C/c3ccncc3)s2)cc1 | -11
O=C(O)c1ccc(-n2nnnc2SCc2ccccc2Br)cc1 | -8
CS(=O)(=O)Nc1ccc2c(c1)ncn2CCc1ccccc1 | 0
CC(Oc1ccc2c(=O)c(-c3ccc(Cl)cc3)c(C(F)(F)F)oc2c1)C(=O)O (configuration not stated) | -3
Cc1ccc(SSc2cc(C)ccc2N)c(N)c1 | -10
O=C(CN1CCCCC1)Nc1ccc(Br)cc1[N+](=O)[O-] | -28
Cc1oc2c(c(C)cc3oc(=O)c(CC(=O)NCCCO)c(C)c32)c1C | -22
CN1C(=O)C(C)(C)N(C(=O)c2cccc([N+](=O)[O-])c2)c2ccccc21 | -13
COc1ccc(NC(=O)Nc2cccs2)cc1OC | -19
O=C(Cn1c2ccccc2c(=O)c2ccccc21)N/N=C/c1ccc(N2CCCC2)c([N+](=O)[O-])c1 | -16
COC(=O)c1c(F)c(F)c(N2CCOCC2)c(F)c1F | 1
CCOC(=O)N1CCC(NC(=O)C(C)n2c3ccccc3c3cnn(C)c(=O)c32)CC1 (configuration not stated) | -33
O=C(COC(=O)c1cccs1)Nc1ccccc1[N+](=O)[O-] | -9
CCOC(=O)N1CCC(N(CCOC)C(=S)Nc2cccc(SC)c2)CC1 | -16

As a working copy, some entries already given:
SMILES | OX1R antag
CCOC(=O)N1CCC(NC(=O)C(C)n2c3ccccc3c3cnn(C)c(=O)c32)CC1 (configuration not stated) | -33
O=C(COC(=O)c1cccs1)Nc1ccccc1[N+](=O)[O-] | -9
CCOC(=O)N1CCC(N(CCOC)C(=S)Nc2cccc(SC)c2)CC1 | -16

(continued)
SMILES | OX1R antag
CC(Sc1nc2cc(Cl)ccc2s1)C(=O)Nc1cccc(S(=O)(=O)N2CCOCC2)c1 (configuration not stated) | 2
O=C(NC1CCCC1)c1cc2ccccc2o1 | 1
C=CC[n+]1ccn(-c2nc3ccccc3nc2[N-]S(=O)(=O)c2cccs2)c1 | -2
CCOC(=O)CNC(=O)C(Cc1ccccc1)NC(=O)OCc1ccccc1 (configuration not stated) | -12
COc1ccc(NC2=C(C)C(=O)CC2)cc1 | -3
CCc1cc(=O)oc2c(C)c(O)c(CN3CCCCC3)cc12 | -18
COc1ccccc1CN1CC(C(=O)NC2CCCCC2)CC1=O (configuration not stated) | -19
CCC(C(=O)Nc1cc(C(=O)O)ccc1C)c1ccccc1 (configuration not stated) | -5
Cc1csc2nc(CNC(=O)C3CC=CCC3C(=O)O)cn12 (configuration not stated) | -13
CCOc1ccc(/C=N/Nc2cc(=O)n(C)c(=O)n2C)cc1 | 0
CC1CC(C)CN(C(=O)COC(=O)CCCN2C(=O)c3cccc4cccc(c34)C2=O)C1 (configuration not stated) | -27
O=C(COC(=O)c1cccnc1Cl)Nc1ccc2c(c1)OCCO2 | -4
CCOC(=O)N1CCN(C(=O)c2ccc(S(=O)(=O)c3ccc(C)cc3)c(NC(C)=O)c2)CC1 | -27
O=[N+]([O-])c1ccc(O)c(NC(=S)Nc2ccccc2)c1 | -11
CN(C(=O)COC(=O)c1cccc(NS(=O)(=O)c2ccc(F)c(F)c2)c1)C1CCS(=O)(=O)C1 (configuration not stated) | -8
C=CCN(C(=O)CNC(=O)c1ccco1)C(C(=O)NC1CCCCC1)c1cccnc1 (configuration not stated) | -3
CCN(C(=O)c1cc2cc(OC)ccc2oc1=O)c1cccc(C)c1 | -22
Cn1c(N)c(C(=O)COC(=O)c2cc(-c3ccco3)nc3ccccc23)c(=O)n(Cc2ccccc2)c1=O | 4
CCCN(C(=O)CSc1cc(-c2ccccc2)c2ccc(OC)cc2n1)C1CCS(=O)(=O)C1 (configuration not stated) | -14
CCC(=O)OC1CC(C)N(C(=O)c2ccccc2)c2ccc(C)cc21 (configuration not stated) | -36
Cc1ccc(CNS(=O)(=O)c2c(C(=O)N3CCCCC3)c(C)n(C)c2C)cc1 | -12
CC1(C)CC(=O)C2=C(C1)Nc1ccccc1S2 | -11
CCOC(=O)C1(CCOc2ccccc2)CCN(Cc2ccc(CO)o2)CC1 | -25
O=C(NCC1CC1)c1ccc(Oc2cc(Cl)cc(Cl)c2)o1 | -20
COc1ccc(C(=O)N2CCCCC2C(=O)Nc2ccc(-n3nc(C)cc3C)cc2)o1 (configuration not stated) | -21
COc1ccc(S(=O)(=O)NCCC(C)C)cc1OC | -4
Oc1ccc(-c2cn3c(n2)SCC3)cc1 | 1
O=C(NCCN1CCN(c2ccccc2)CC1)c1cccc(Cl)c1 | -28
CC(=O)NC1=NN(C(C)=O)C(c2ccc(C(C)C)cc2)S1 (configuration not stated) | -19
CC(=O)c1sc(NC(=O)c2c(F)cccc2F)nc1-c1ccccc1 | -15
Cc1oc(-c2cccc(Cl)c2)nc1CSCC(=O)O | -8
CC1=C(C(=O)OC2CCCC2)C(c2coc3ccc(C)cc3c2=O)C2=C(CCCC2=O)N1 (configuration not stated) | -51
CCc1ccccc1NC(=O)c1cnn(-c2ccccc2)c1C | -12
O=S(=O)(c1cccc(-c2nc3ccccc3s2)c1)N1CCOCC1 | -26
CCn1c(SCC(=O)NNC(=O)c2ccco2)nnc1-c1ccco1 | -13
O=C(/C=C/c1ccc(Cl)cc1)N(Cc1ccccc1)C1CCS(=O)(=O)C1 (configuration not stated) | -33
COCCCNC(=S)N/N=C/c1ccc2c(c1)OCO2 | -13
O=C(Nc1cccc(F)c1)c1ccc2c(c1)OCO2 | -28
Cc1cc(=O)oc2cc(OCC(=O)NCCCN3CCCC3=O)ccc12 | -22
CC(Oc1ccc2c3c(c(=O)oc2c1)CCC3)C(=O)NCCN1CCOCC1 (configuration not stated) | -17

Given comma-delimited: entries from further up
Compound,OX1R antag
CCOC(=O)C1(CCOc2ccccc2)CCN(Cc2ccc(CO)o2)CC1,-25
CCc1ccccc1NC(=O)c1cnn(-c2ccccc2)c1C,-12
O=C(/C=C/c1ccc(Cl)cc1)N(Cc1ccccc1)C1CCS(=O)(=O)C1 (configuration not stated),-33
Oc1ccc(-c2cn3c(n2)SCC3)cc1,1
Cc1cc(=O)oc2cc(OCC(=O)NCCCN3CCCC3=O)ccc12,-22

(listing goes on)
SMILES | OX1R antag
COc1ccc(NC(=O)CSc2nnc(CNc3ccc(F)cc3)o2)c(OC)c1 | -5
NC(=O)c1ccc(C(F)(F)F)n(Cc2ccccc2Cl)c1=O | -26
CCOC(=O)C(NC(C)=O)C(=O)Nc1ccc(OC)cc1 (configuration not stated) | 4
Cc1cc(-c2ccccc2)nc(N/N=C/c2ccc([N+](=O)[O-])cc2)n1 | -14
Cc1ccc(NC(=O)C2CC(=O)N(CCc3ccccc3)C2)c(C)c1 (configuration not stated) | 2
CCOC(=O)CCCCC(=O)c1[nH]c(=O)[nH]c1CSc1nnc2c3cc(Br)ccc3n(C)c2n1 | -12
COC(=O)[C@H]1C[C@H]1[C@@H](NC(=O)c1ccc[nH]1)c1ccccc1 | 12
Cc1ccc(NC(=O)CS(=O)CC(=O)Nc2cnc3ccccc3c2)cc1Cl (configuration not stated) | -16
COc1ccc(-c2noc(N3CCC(C(=O)Nc4ccc(F)cc4F)CC3)n2)cc1 | -21
COC(=O)C1=C[C@@H](C(=O)OC)[C@@H]2C3=C(C(=O)[C@@]2(C)NC(=O)c2ccccc2)[C@H](C)C(C(=O)OC)=C(C(=O)OC)[C@@H]3C1 | -19
CC(=O)Nc1ccc(S(=O)(=O)NCC(=O)NNC(=O)COc2ccccc2Cl)cc1 | 1
O=C(O)c1c(Cl)c(Cl)c(Cl)c(Cl)c1C(=O)N1CCOCC1 | -10
O=C1CC(c2ccccc2)CC(O)=C1C=NCc1ccco1 (configuration not stated) | -24
Clc1ccc(-c2cn3cccnc3n2)cc1Cl | -9
CCc1nnc(NC(=O)CSc2nnc3c(n2)[nH]c2ccccc23)s1 | -18
COc1ccc(/C=C/C(=O)N2CCOCC2)cc1OC | -7
COc1ccc(S(=O)(=O)NN(C)C)cc1N(C)S(=O)(=O)c1ccc(Cl)cc1 | -8
CCN(CC(=O)Nc1c(F)cccc1F)C(=O)C1CCN(S(=O)(=O)c2ccc(C)cc2C)CC1 | -23
Cc1ccc(S(=O)(=O)NCCCCCC(=O)Nc2ccccn2)cc1 | -8
COc1ccc(/C=C2\Sc3ccc(C(=O)N4CCOCC4)cc3N(C)C2=O)cc1 | -16

Compounds shown so far that contain bromine (six):
SMILES | OX1R antag
CC(=O)c1nn(-c2cccc(C)c2)cc1C(=O)c1cccc(Br)c1 | -7
COC(=O)N/N=C(\C)c1ccccc1Br | -20
O=c1[nH]cnc(O)c1C(c1ccc(Br)cc1)c1c(O)nc[nH]c1=O | -5
O=C(O)c1ccc(-n2nnnc2SCc2ccccc2Br)cc1 | -8
O=C(CN1CCCCC1)Nc1ccc(Br)cc1[N+](=O)[O-] | -28
CCOC(=O)CCCCC(=O)c1[nH]c(=O)[nH]c1CSc1nnc2c3cc(Br)ccc3n(C)c2n1 | -12

Carrying on:
SMILES | OX1R antag
COC(=O)Nc1ccc(S(=O)(=O)N2CCC(C(=O)N3CCCCC3C)CC2)cc1 (configuration not stated) | -22
COc1ccc(CN2C(=O)c3ccc(C(=O)O)cc3C2=O)cc1 | -4
COc1ccc(-c2nnn(CC(=O)N(CCN3CCOCC3)C(C(=O)NC3CCCC3)c3ccco3)n2)cc1 (configuration not stated) | -18
CCCCOc1ccc(-c2ncc(Cl)cn2)cc1 | -30
CC(C)CC(=O)NC(=S)Nc1ccc(Cl)cn1 | -17
O=C(NCC1CCCO1)c1ccc(CS(=O)(=O)c2ccc(Cl)cc2)o1 (configuration not stated) | -18
CCOc1ccc(NC(=O)CN(C)C(=O)COc2cccc(CC)c2)cc1OCC | -22
CC1(c2nnc(Cc3ccccc3)o2)CC(c2cccc([N+](=O)[O-])c2)=NO1 (configuration not stated) | -25
CN(C)C(CNc1ccc(C(N)=O)cc1[N+](=O)[O-])c1ccccc1 (configuration not stated) | -7
COc1ccc(/C=C(/NC(=O)/C=C/c2ccccc2)C(=O)NCCCCCC(=O)O)cc1 | -17
CCOC(=O)N1CCN(C(=O)CSC2=NS(=O)(=O)c3cc(F)ccc3N2)CC1 | -5
CCOC(=O)Nc1ccc(C(=O)/C=C/c2ccccc2)cc1 | -5
O=c1[nH]nc(C(F)(F)F)c2nnn(Cc3ccccc3Cl)c12 | -2
O=C1CCCc2c1nc(-c1ccccc1F)n2O | -8
CC(=O)c1ccc(NC(=O)CCOc2cc(C)ccc2C)cc1 | -28
COc1ccccc1N(C)S(=O)(=O)c1ccc(C(=O)N2CCC(C(N)=O)CC2)cc1 | -3
O=C(CC1S/C(=N\S(=O)(=O)c2ccccc2)N(c2ccccc2)C1=O)Nc1ccc(F)cc1 (configuration not stated) | -8
COc1ccc(C2C(C(=O)/C=C/c3ccco3)=C(O)C(=O)N2CCN2CCOCC2)cc1OC (configuration not stated) | 8
CCCc1ccc(OCc2ccc(C(=O)N3CCCC3)o2)cc1 | -32
Cc1noc(COc2ccccc2OCc2onc(C)c2Cl)c1Cl | -24

Looked up by compound from the entries so far (6):
SMILES | OX1R antag
COc1ccc(-c2nnn(CC(=O)N(CCN3CCOCC3)C(C(=O)NC3CCCC3)c3ccco3)n2)cc1 (configuration not stated) | -18
O=c1[nH]nc(C(F)(F)F)c2nnn(Cc3ccccc3Cl)c12 | -2
COC(=O)Nc1ccc(S(=O)(=O)N2CCC(C(=O)N3CCCCC3C)CC2)cc1 (configuration not stated) | -22
O=C(CC1S/C(=N\S(=O)(=O)c2ccccc2)N(c2ccccc2)C1=O)Nc1ccc(F)cc1 (configuration not stated) | -8
CCCc1ccc(OCc2ccc(C(=O)N3CCCC3)o2)cc1 | -32
COc1ccc(CN2C(=O)c3ccc(C(=O)O)cc3C2=O)cc1 | -4

Compound activity: PubChem BioAssay, The Scripps Research Institute Molecular Screening Center
